Assay outcomes from PubChem BioAssay.
RecA intein inh = blocks M. tuberculosis RecA intein splicing; P9WHJ3; cell-free RecA intein splicing, fluorescence; inhibition, %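 (about 9 µM by stock and volumes)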; 290,000 tested, 0.75% active; in the data active = inhibition above about 30%;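 also: 0% = vehicle wells and 100% = reference inhibitor control wells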
Target sequence (P9WHJ3 whole entry, looked up): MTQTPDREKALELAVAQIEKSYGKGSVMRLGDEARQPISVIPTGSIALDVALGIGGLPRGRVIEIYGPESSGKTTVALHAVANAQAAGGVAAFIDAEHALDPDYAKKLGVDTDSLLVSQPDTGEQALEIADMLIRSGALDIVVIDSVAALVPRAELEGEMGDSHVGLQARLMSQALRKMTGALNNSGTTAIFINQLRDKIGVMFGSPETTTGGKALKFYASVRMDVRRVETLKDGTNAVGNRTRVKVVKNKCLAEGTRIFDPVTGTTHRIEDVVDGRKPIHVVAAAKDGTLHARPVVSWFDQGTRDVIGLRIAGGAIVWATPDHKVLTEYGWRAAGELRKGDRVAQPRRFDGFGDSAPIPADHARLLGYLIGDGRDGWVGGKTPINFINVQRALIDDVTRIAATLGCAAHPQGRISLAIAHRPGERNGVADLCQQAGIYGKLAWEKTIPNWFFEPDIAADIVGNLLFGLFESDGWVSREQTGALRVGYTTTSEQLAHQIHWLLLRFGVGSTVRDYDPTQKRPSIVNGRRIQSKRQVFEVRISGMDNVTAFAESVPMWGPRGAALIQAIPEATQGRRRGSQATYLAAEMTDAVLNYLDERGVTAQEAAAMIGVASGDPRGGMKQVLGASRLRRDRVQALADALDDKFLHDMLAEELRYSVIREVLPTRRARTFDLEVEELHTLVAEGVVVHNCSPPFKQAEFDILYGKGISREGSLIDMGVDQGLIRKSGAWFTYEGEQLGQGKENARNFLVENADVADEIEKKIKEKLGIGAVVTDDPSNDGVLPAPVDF
Mtb betalactam = beta-lactam sensitization of Mtb H37Rv; M. tuberculosis H37Rv growth with meropenem, percent inhibition; hits of this screen are not shown here; inhibition, % at 25 µM; 330,000 tested, 0.27% active; AID 434955;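 active = about 74% or more and at least 40 points above the plate without the antibiotic, then above 30% in a dose series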;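 also: growth measured after seven days incubation then overnight dye step; 0% = bacteria only wells and 100% = bacteria with antibiotic; twin plates without the antibiotic show which effects depend on it; some results filed as inactive read as strong as hits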
YopH inh = blocks Yersinia enterocolitica YopH tyrosine phosphatase; fluorescence Ex485/Em525; inhibition, %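 (about 10 µM by stock and volumes)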; 140,000 tested, 0.16% active; AID 898;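 active = inhibition of 50% or more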;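 also: controls were vehicle for no effect and minimum signal wells for full effect; inactives centre near -20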
Mtb growth = M. tuberculosis H37Rv growth inhibitors, H37Rv strain (AID 1626). M. tuberculosis H37Rv growth inhibition; higher % means a stronger effect. one-dose inhibition, % at 10 µM; IC50 in µM for titrated hits. 220,000 tested, 0.95% active;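 active = confirmed in a dose series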;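 also: bacteria incubated seven days before Alamar blue readout; 0% = bacteria only wells and 100% = bacteria with antibiotic wells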
Arbovirus inh = blocks arbovirus infection; AID 1251; 200,000 tested, 0.37% active; inhibition, % at 10 µM; arbovirus infection cell-based antiviral screen;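 active = inhibition from about 30%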;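 also: bluetongue infection of BSR cells; cell survival read as ATP light after 72 h; 0% = infected wells without compound and 100% = uninfected wells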
Arbovirus inh repeat = second read-out of Arbovirus inh, no call of its own (marks repeat the call); inhibition, %; measured here: 10K subset replicate screen; many hits read low in the repeat;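 first of two repeat runs on a subset; 0% = infected and 100% = uninfected wells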
* = called active by the depositor; . = no result given. The list is partial; count on the stated rates, not on these rows.

SMILES	RecA intein inh	Mtb betalactam	YopH inh	Mtb growth	Arbovirus inh	others
COC(=O)c1ccccc1NC(=O)c1cc(-c2ccc(O)cc2)on1	-0.9	12.9	-34.4	10.2%	48.1*
CCOC(=O)CSc1ccc(S(=O)(=O)N2CCCCC2)cc1[N+](=O)[O-]	1.4	3.9	-28.3	1.6%	1.6
CCn1cc(CN2CCCC(CNS(=O)(=O)c3cccc4cccnc34)C2)cn1 (stereo unspecified)	2.1	1.2	.	.	.
CCC(C)(C)n1nnnc1CN(Cc1ccco1)Cc1cc2cc3c(cc2[nH]c1=O)OCO3	-9.8	4.0	-45.9	-7.7%	3.4
CCc1ccc(-n2c(=O)c3ccc(C(=O)NCCc4ccccc4)cc3n(CC(N)=O)c2=O)cc1	3.6	-1.2	.	.	.
O=C1OC2CC3CC1CC(O)(C3)C2 (stereo unspecified)	1.6	6.3	4.0	-8.6%	2.5
CCN(CC)CCN=C1CCCc2ccccc2N1	-2.3	-3.8	-17.4	2.9%	7.0	Arbovirus inh repeat=3.8
CC(Oc1cc(C(F)(F)F)cc(C(F)(F)F)c1)C(=O)NC(N)=O (stereo unspecified)	-1.2	-6.5	-33.4	1.1%	2.5
CCOc1cccc(CN2CCCC(N3CCc4ccccc4C3)C2)c1O (stereo unspecified)	-4.5	0.3	.	.	.
COc1ccc(C2/C(=C(/O)c3ccc4c(c3)CC(C)O4)C(=O)C(=O)N2CCCN2CCOCC2)cc1OC (stereo unspecified)	1.5	-15.6	.	.	.
COc1ccc(Cl)cc1NC(=O)CN(C)C(=O)CNC(=O)C12CC3CC(CC(C3)C1)C2	1.9	-5.1	6.6	0.5%	1.4
CC1(C)c2[nH]c3ccccc3c2C[C@@H]2C(=O)N(Cc3ccccc3)C(=O)N21	-20.1	56.4	.	2.4%	.

The last 5 records of the part before are carried over, then new ones follow:
SMILES	RecA intein inh	Mtb betalactam	YopH inh	Mtb growth	Arbovirus inh	others
CC(Oc1cc(C(F)(F)F)cc(C(F)(F)F)c1)C(=O)NC(N)=O (stereo unspecified)	-1.2	-6.5	-33.4	1.1%	2.5
CCOc1cccc(CN2CCCC(N3CCc4ccccc4C3)C2)c1O (stereo unspecified)	-4.5	0.3	.	.	.
COc1ccc(C2/C(=C(/O)c3ccc4c(c3)CC(C)O4)C(=O)C(=O)N2CCCN2CCOCC2)cc1OC (stereo unspecified)	1.5	-15.6	.	.	.
COc1ccc(Cl)cc1NC(=O)CN(C)C(=O)CNC(=O)C12CC3CC(CC(C3)C1)C2	1.9	-5.1	6.6	0.5%	1.4
CC1(C)c2[nH]c3ccccc3c2C[C@@H]2C(=O)N(Cc3ccccc3)C(=O)N21	-20.1	56.4	.	2.4%	.
CC(C)N(C(=O)CSc1nc(Cc2ccccc2)nc2ccccc12)C(C)C	-1.1	-0.8	.	.	.
CCOc1ccccc1NC(=O)C1CCN(C(=O)c2cccs2)CC1	1.8	1.9	.	-0.2%	-3.2
Cc1cccc(OCC(O)CN2CCN(C3CCCCC3)CC2)c1 (stereo unspecified)	5.3	-9.6	-37.7	-0.8%	-5.8
CCC(=O)N1CCN(c2cc(N3CCCC3)c(F)cc2[N+](=O)[O-])CC1	1.1	-3.7	.	.	.
O=C(CN(C(=O)CSc1nc2ccccc2o1)c1ccccc1)NC1CCCCC1	-0.5	-4.5	-15.3	9.6%	8.2
COc1ccc(C(C)C)cc1S(=O)(=O)Nc1ccncc1	-6.2	1.9	.	4.0%	0.9
Cc1cc(C)c(NC(=O)CSc2nc3ncc(Br)cc3[nH]2)c(C)c1	-2.0	4.7	.	.	.
COc1ccc(N/C=C(\C(C)=O)c2ccc(OC)c(OC)c2)cc1OC	-3.6	0.6	.	3.3%	6.8
O=C(COC(=O)c1cc([N+](=O)[O-])ccc1NCCO)Nc1ccc2c(c1)OCO2	-0.8	-2.5	.	0.7%	-6.8
Cc1ccc(OCC(=O)Nc2ccc(O)c(C(=O)O)c2)cc1C	1.8	-2.2	-37.4	-5.1%	15.3
CCCCNC(=O)c1ccc(CNc2c(N3CCC(C(=O)OCC)CC3)c(=O)c2=O)cc1	0.4	-4.7	-12.8	-6.1%	1.0
Cc1ccc(NC(=O)CCc2nnc3ccc(N4CCN(C)CC4)nn23)cc1F	0.2	-6.9	.	.	.
CC(=O)/C(N=Nc1ccc(OC(F)(F)F)cc1)=C(\C)O	-1.1	-6.2	.	0.4%	.
CC(=O)NNC(=S)NC(=O)c1cccc([N+](=O)[O-])c1	-1.0	22.3	-26.0	11.8%	-3.5
CCNC(=O)C(=O)NCc1ccncc1	-1.2	-0.5	.	-6.7%	2.8
N#CCSCC(=O)Nc1ccc(Br)cc1	0.4	-5.2	-4.4	-6.7%	2.9
CC1CCc2cccc3c(O)cc(=O)n1c23 (stereo unspecified)	0.7	-4.0	.	.	.
Cc1ccc(CNC(=O)CC2Sc3ccccc3NC2=O)cc1 (stereo unspecified)	1.6	0.1	.	4.0%	-4.2
O=C(NCCC1CCCC1)c1cccs1	-3.2	-0.5	.	.	.
O=C1NC(=O)C(c2ccc(F)cc2)N1 (stereo unspecified)	-2.4	3.0	.	.	.
CCCn1nnnc1-c1ccc(Cl)cc1	.	-4.9	-27.4	0.3%	-3.0
COc1cccc(C(=O)SC2=NCCS2)c1	1.8	7.7	-44.7	5.2%	2.6
Cc1ccc(S(=O)(=O)NC(CC(=O)n2nc(C)cc2C)c2ccccc2)cc1 (stereo unspecified)	7.0	-4.3	-12.9	-5.6%	1.9
CC(C)CC(=O)NC(Oc1ccc(Cl)cc1)C(Cl)(Cl)Cl (stereo unspecified)	4.3	-8.7	-28.9	-1.4%	3.5

Retrieved by compound from the entries so far, 5 records:
SMILES	RecA intein inh	Mtb betalactam	YopH inh	Mtb growth	Arbovirus inh	others
CC1CCc2cccc3c(O)cc(=O)n1c23 (stereo unspecified)	0.7	-4.0	.	.	.
CCNC(=O)C(=O)NCc1ccncc1	-1.2	-0.5	.	-6.7%	2.8
CCCn1nnnc1-c1ccc(Cl)cc1	.	-4.9	-27.4	0.3%	-3.0
Cc1ccc(S(=O)(=O)NC(CC(=O)n2nc(C)cc2C)c2ccccc2)cc1 (stereo unspecified)	7.0	-4.3	-12.9	-5.6%	1.9
CC(=O)/C(N=Nc1ccc(OC(F)(F)F)cc1)=C(\C)O	-1.1	-6.2	.	0.4%	.

Next entries follow:
SMILES	RecA intein inh	Mtb betalactam	YopH inh	Mtb growth	Arbovirus inh	others
COc1ccc(C=O)cc1Cn1cnc2c(cnn2C)c1=O	-1.4	-2.7	.	3.8%	1.7
COc1ccccc1NC(=O)N1CCOCC1	-3.2	6.4	.	.	.
O=C(NCCS(=O)(=O)N1CCN(c2ccccc2F)CC1)C1CC(=O)N(c2ccccc2)C1 (stereo unspecified)	1.1	-6.9	.	.	.
CC1CCN(C(=O)NC(=O)c2ccc(Cl)cc2)CC1	5.2	-10.2	.	.	.
COc1ccccc1N(CC(=O)NCCSc1ccccc1)S(C)(=O)=O	-0.1	0.8	13.3	1.0%	3.0
CC(C)=NOC(=O)c1c(C)noc1-c1snnc1C	-0.1	-3.1	.	-1.7%	.
CCOC(=O)c1c(NC(=O)CSc2nnc(C)c(=O)[nH]2)sc(C)c1-c1ccc(C)cc1	2.6	-5.3	.	-10.0%	.
O=C(NNC(=O)c1cc2cc3ccccc3nc2s1)c1cccc(C(F)(F)F)c1	-4.1	-10.5	-25.2	.	-15.2
Cc1ccc(S(=O)(=O)C(CCC(=O)N2CCOCC2)S(=O)(=O)c2ccc(C)cc2)cc1	-2.6	-2.1	-28.6	-3.0%	-2.8
Nc1[nH]ncc1C(=O)Nc1cccc(C(F)(F)F)c1	-5.7	43.0	-35.8	11.1%	0.9
Cc1ccc(NCN2C(=O)c3ccccc3C2=O)c(C)c1	1.6	11.4	-39.7	3.0%	2.4
COc1cccc(OCC(O)CNC(=O)c2oc3ccc(C)cc3c2C)c1 (stereo unspecified)	2.2	4.8	.	.	.
O=C(Cn1nc(-c2ccc(F)cc2)ccc1=O)Nc1ccc2c(c1)OCCO2	-1.3	2.1	.	.	.
CCn1c(=O)c2ccccc2n(Cc2cccc(C)c2)c1=O	0.9	3.1	.	.	.
O=c1[nH]c(NCc2ccccc2)nc2c1CCC2	0.1	-0.5	-37.9	-2.5%	-1.4
O=C(COC(=O)CCc1c[nH]c2ccccc12)Nc1cc([N+](=O)[O-])ccc1Cl	1.3	99.1	-12.6	64.5%	8.9
Cc1ccc(NC(=O)COc2coc(CN3c4ccccc4CC3C)cc2=O)c(C)c1 (stereo unspecified)	-1.9	1.5	.	.	.
CCOCCc1c(O)nc(SCC(=O)N2CCOCC2)[nH]c1=O	-1.1	-3.7	.	.	.
CC(=O)Nc1ccc(S(=O)(=O)NCc2cn3ccsc3n2)cc1	1.3	-1.5	3.2	-1.4%	-2.6
CN(CC(=O)Nc1ccc(Cl)cc1)C(=O)C1=COCCO1	2.3	-3.9	.	.	.
CC(=O)O[C@@H]1[C@H]2[C@@H](C[C@@H](C)[C@@H]3CCC(=O)[C@@]13C)OC(=O)[C@@H]2C	-2.0	-3.6	.	-3.1%	.
O=C(N=C1SC2CS(=O)(=O)CC2N1c1c(Cl)cccc1Cl)C1CC1 (stereo unspecified)	-0.5	2.5	.	.	.
Cc1cccc(-n2nnnc2SCC(=O)c2cc(C)n(CC3CCCO3)c2C)c1 (stereo unspecified)	-0.6	0.5	-22.6	-0.1%	1.7
c1csc(-c2ccc3ccccc3n2)c1	1.8	3.1	-30.0	.	6.4
CCCC(c1nnnn1Cc1ccc(F)cc1)N1CCN(CC)CC1 (stereo unspecified)	0.3	-11.6	.	-1.2%	6.2
COC(=O)CCSCC(=O)Nc1cc(C)on1	2.8	1.0	-56.9	0.1%	3.0
CC(CN1CCCCC1)OC(=O)c1ccc2c(c1)OCCO2 (stereo unspecified)	0.9	-9.4	.	.	.
Cc1ccccc1OCC(=O)Nc1ccc2c(c1)C(=O)N(CCC(=O)O)C2=O	-0.7	2.6	.	.	.
CC(Oc1cccc2cccnc12)C(=O)N/N=C/c1ccc2c(c1)OCO2 (stereo unspecified)	-0.2	2.5	.	.	.
COc1cccc(NC(=O)C2CCCN2C(=O)Nc2ccccc2)c1 (stereo unspecified)	-0.2	0.2	.	.	.
COC(=O)c1cc(NC(=O)CC2C(=O)NCCN2C(=O)c2ccccc2)cc(C(=O)OC)c1 (stereo unspecified)	2.5	-2.8	-21.2	-7.1%	0.7
Cc1ccc(C)c(CNS(=O)(=O)c2ccc3c(c2)C(C)(C)C(=O)N3C)c1	1.1	-2.2	.	.	.
Cc1cc(C)nc(Oc2ccc([N+](=O)[O-])cc2)n1	-1.2	-0.8	.	10.7%	7.6
CCOC(=O)c1c(C)nc(-c2ccccc2)nc1NC(C)=O	2.3	-3.6	-28.5	9.3%	-3.3	Arbovirus inh repeat=-5.0
O=S(=O)(O)c1nc2ccccc2n1Cc1ccc(Cl)cc1Cl	3.5	-20.6	-50.5	-2.8%	21.6
CC(C)c1ccc(NC(=O)CSc2nc(=O)[nH]c3c2CCCC3)cc1	1.5	11.8	.	.	.
CCN1CCSc2ccc(C(=O)NCc3cccc(Br)c3)cc21	-14.8	-3.8	.	.	.
Fc1ccc(C2c3cccn3CCN2C(=S)Nc2cccc(Br)c2)cc1 (stereo unspecified)	11.7	-5.1	.	8.5%	-18.0
Cc1oc2cc3oc(=O)c(CC(=O)O)c(C)c3cc2c1-c1ccccc1	-2.3	-2.0	.	.	.
